Source: PubChem BioAssay
HNF4A DNA FP = change in binding of human HNF4 alpha to DNA | activity change, % at 10 µM | HNF4a-FITC DNA binding, fluorescence polarization, 1 h | 0.3% of 360,000 active | P41235; in the data active = activity change above about 30%, passing the limit was not always enough;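 also: controls were the assay level and a saturating level of protein; the project sought stronger binding though the title names inhibitors; some compounds called inactive have numbers as strong as hits; positive values seem to mean higher polarization but the record does not say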
Target sequence (P41235 whole entry, looked up): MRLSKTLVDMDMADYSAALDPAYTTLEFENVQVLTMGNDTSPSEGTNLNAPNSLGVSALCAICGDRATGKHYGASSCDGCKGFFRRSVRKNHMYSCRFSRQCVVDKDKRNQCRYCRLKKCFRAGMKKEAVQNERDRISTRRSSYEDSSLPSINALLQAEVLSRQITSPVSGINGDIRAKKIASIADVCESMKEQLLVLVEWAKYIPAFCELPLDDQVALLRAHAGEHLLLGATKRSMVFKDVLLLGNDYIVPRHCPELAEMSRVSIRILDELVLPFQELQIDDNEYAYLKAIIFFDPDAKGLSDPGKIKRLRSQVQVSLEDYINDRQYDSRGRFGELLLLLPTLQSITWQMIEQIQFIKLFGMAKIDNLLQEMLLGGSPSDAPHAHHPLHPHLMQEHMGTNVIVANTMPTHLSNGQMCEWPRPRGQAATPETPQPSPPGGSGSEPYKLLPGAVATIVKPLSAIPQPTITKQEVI
UCH37 DUB inh = blocks the human deubiquitinase UCH37; purified proteasome/UCH37, Ub-AMC cleavage fluorescence; inhibition, % (test concentration not listed); 0.33% of 330,000 active; AID 588478;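 active = mean of two replicates above 20%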;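 also: 0% = compound-free wells with enzyme and 100% = wells lacking proteasome; stock transfer was 100 nL into about 20 µL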
Target sequence (Q9Y5K5 whole entry, looked up): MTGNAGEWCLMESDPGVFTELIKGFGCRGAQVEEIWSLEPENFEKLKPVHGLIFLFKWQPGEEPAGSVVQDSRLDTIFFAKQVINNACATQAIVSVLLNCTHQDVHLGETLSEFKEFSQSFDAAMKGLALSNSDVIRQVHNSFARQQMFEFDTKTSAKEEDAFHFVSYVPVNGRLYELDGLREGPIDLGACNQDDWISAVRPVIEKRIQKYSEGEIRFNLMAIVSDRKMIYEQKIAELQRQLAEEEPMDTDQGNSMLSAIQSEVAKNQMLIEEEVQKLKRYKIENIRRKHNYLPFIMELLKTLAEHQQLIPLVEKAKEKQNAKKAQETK
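System: Proteasome-associated human UCH37 deubiquitinase; Input: 0.15 nM proteasome in added enzyme buffer; Also added: Ub-AMC substrate from 1 µM stock; Incubation: 30 min compound-proteasome preincubation then 25 min substrate reaction, room temperature; Detection: fluorescence, ex 355 nm, em 460 nm; Read-out: % inhibition of Ub-AMC cleavage fluorescence; Benchmarks: no-proteasome and no-compound wells.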
FGF22 binding = shifts melting point of recombinant human FGF22 | Q9HCT0 | recombinant FGF22 thermal shift, SYPRO orange fluorescence; percent of sucrose octasulfate shift, DMSO zero | calls only at 9.99 µM | 1.5% of 340,000 active | AID 651658;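 active = melting point raised past a set limit in the mean and every replicate; inconclusive = no clear call; three in four hits are not shown here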
Target sequence (Q9HCT0 whole entry, looked up): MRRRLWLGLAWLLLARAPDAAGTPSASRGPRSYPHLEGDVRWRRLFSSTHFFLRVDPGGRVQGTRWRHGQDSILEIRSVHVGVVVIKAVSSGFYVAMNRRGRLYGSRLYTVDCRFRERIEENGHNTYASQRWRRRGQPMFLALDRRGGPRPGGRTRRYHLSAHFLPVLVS
Ecoli growth = E. coli growth inhibition. Escherichia coli growth, OD600, 23 h; active compounds read low. OD600 absorbance (no concentration beside the values). 0.21% of 330,000 active;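 active = OD600 absorbance below the run mean of sample wells minus 3.6 SD, in any replicate, cut at about 0.56 in these data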;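 also: stock transfer was 300 nL into about 60 µL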
Vif TR-FRET = HIV-1 Vif–A3G interaction blockers – biochemical, TR-FRET, GST-Vif 1-94, biotin-A3G peptide, dose response retest, primary screen (AID 1117319); TR-FRET GST-Vif / biotin-A3G peptide binding; higher % means a stronger effect; test concentration not given here; strong numbers were not always called active; inhibition, %, or IC50 in µM where a hit was titrated; 0.57% of 260,000 active;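 active = above the screen mean plus three standard deviations and confirmed in dose response; inconclusive = results disagree or hit not tested in dose response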;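 also: Vif residues 1-94 fused to GST binding biotinylated APOBEC3G peptide 110-148; 0% = full assay without inhibitor and 100% = GST in place of GST-Vif; retest series ran down from 100 µM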
MLL AF4-AF9 inh = MLL-AF4/AF9 protein interaction inhibition | inhibition, % at 10 µM | AID 651704 | 0.47% of 350,000 active | P42568 | AlphaScreen, biotin-AF4 peptide binding to FLAG-AF9;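 active = every replicate reaching a set inhibition limit, whatever the replicate mean, cut at about 25% in these data; inconclusive = mean inhibition reaches that limit but some replicates miss it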;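 also: 0% = plate neutral control median and 100% = total signal loss; the record names both 10 and 1 µM as test concentration; the first replicate is given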
RanGTP-Impb inh = disruptors of Ran-importin-beta complex formation – biochemical, FRET, CFP-Ran, YFP-importin-beta, homogeneous, primary screen. cell-free CFP-Ran/YFP-importin-beta FRET ratio. inhibition, % (test concentration not listed). 1.1% of 300,000 active. AID 2216;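 active = most replicates above 15%; inconclusive = exactly half above 15%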;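 also: 0% = DMSO wells and 100% = Ran loaded with GDP instead of GTP; wells of about 40 µL received 100 nL stock; the first replicate is given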
* = called active by the depositor; i = inactive; u = inconclusive; x = no result given; & = joins results of further samples. The list is partial; the hit share may differ from the screen's.

SMILES	HNF4A DNA FP	UCH37 DUB inh	FGF22 binding	Ecoli growth	Vif TR-FRET	MLL AF4-AF9 inh	RanGTP-Impb inh
O=C(CCOc1ccccc1)N1CCN(S(=O)(=O)c2ccccc2F)CC1	-2.8	2.5	i	0.67	-2%	-0.9	x
Cc1nc(NCc2ccco2)c(C#N)c2c1COC(C)(C)C2	-2.5	-11	x	x	10%	-4.0	0.8
COc1cccc(CNc2nc(NCc3ccccc3)nc3ccsc23)c1	-2.0	x	i	x	x	3.1	x
Cc1ccc(S(=O)(=O)N2Cc3ccccc3CC2C(=O)N(C)C)cc1 (stereo not drawn)	3.2	x	i	x	6%	-0.8	x
Cc1ccc(C)c(OCC(=O)Nc2ccccc2C(=O)N2CCN(C)CC2)c1	-2.8	x	i	x	x	2.0	-2.3
CC(=O)c1ccc(OC2(C)CCN(Cc3ccccc3OC(F)F)C2)cc1 (stereo not drawn)	4.2	x	i	x	x	-0.1	x
CCc1ccccc1NC(=O)Nc1c(C)n(C)n(-c2ccccc2)c1=O	-0.3	-0.1	i	0.68	x	-1.2	-0.6
CCC1(c2ccccc2)NC(=O)N(CC(=O)Nc2cc(S(=O)(=O)N3CCCCCC3)ccc2OC)C1=O (stereo not drawn)	3.9	0.5	x	0.72	-2%	-1.2	8.4
CCOc1ccccc1NC(=O)COC(=O)CN1C(=O)NC(C)(C)C1=O	-1.1	-0.4	i	0.68	x	-7.1	x
COc1ccc(/C=N/NC(=O)CSCC(=O)Nc2ccccc2)cc1	-4.9	x	i	x	-5%	4.8	3.0
COc1ccccc1-c1c(C)nn2c(N3CCC(C)CC3)cc(C)nc12	2.4	-93	i	0.68	u	4.6	2.9
N=C1N(/N=C/c2ccccc2)C(=Nc2ccccc2)C(=S)N1c1ccccc1	2.5	x	x	x	2%	x	-1.1
Cn1c(N)c(C(=O)COC(=O)C2Cc3ccccc3CN2S(C)(=O)=O)c(=O)n(C)c1=O (stereo not drawn)	-3.1	x	i	x	x	0.8	x
Cc1cccn2c(=O)nc(SCC(=O)NC3CCCCC3)nc12	-0.6	-3.1	i	0.68	0%	-3.0	-4.6
Fc1ccc(/C=N/N2CCCCC2)c(F)c1	1.0	x	i	x	-5%	-2.5	-4.7
Cc1cc([N+](=O)[O-])nn1CCCC(=O)Nc1cccc(Cl)c1Cl	3.7	0.3	i	0.66	10%	2.3	1.3
COCCN1C(=O)C(=O)/C(=C(/O)c2ccc(S(=O)(=O)N3CCOCC3)cc2)C1c1ccc(O)cc1 (stereo not drawn)	-0.8	9.0	x	0.68	14%	-6.9	0.3
N#C/C(=N\Nc1ccccc1)C(N)=S	1.2	x	i	x	x	1.1	1.6
Cc1cc(C)c(C)c(/C=C(/C#N)C(N)=S)c1C	-4.0	5.7	x	0.72	u	x	3.6
CCOC(=O)[C@H]1[C@H]2COc3ccc(Br)cc3[C@@H]2N2C(=O)N(c3ccccc3)C(=O)[C@@]12C	7.9	-1.9	i	x	x	x	x
O=C(O)Cn1nnc(-c2ccc(OCc3ccccc3)cc2)n1	-0.2	x	i	x	-1%	-2.1	2.0
CN(C)S(=O)(=O)c1ccc(C(=O)NCC(C)(C)CN=C2NS(=O)(=O)c3ccccc32)cc1	1.9	1.3	i	0.67	x	1.3	2.1
COc1cc(C(=O)NCCC2=CCCCC2)ccc1OCc1c(C)noc1C	2.8	0.4	i	0.67	-1%	-0.1	x
CC(C)[C@H](NC(=O)c1ccco1)C(=O)NC12CC3CC(CC(C3)C1)C2	-1.1	0.7	i	0.61	-7%	-1.7	-0.6
O=C(NCc1ccccc1)C(=O)NCC1OCCN1S(=O)(=O)c1ccc([N+](=O)[O-])cc1 (stereo not drawn)	32*	6.2	i	0.69	-14%	-0.2	0.2
Cc1ccc(OCCCn2c(=O)sc3ccccc32)cc1	0.0	1.8	x	0.72	-6%	x	-0.7
O=C(COC(=O)/C=C/c1cccc(Cl)c1)Nc1ccc2[nH]c(=O)[nH]c2c1	4.1	4.6	i	0.71	29%	-0.8	-0.1
CC(=O)NNC(=O)c1cc2c3ccccc3n(C)c2s1	-0.1	-41	i	0.64	6%	0.6	-0.5
Cc1cccc(NC(=O)CSCC(=O)Nc2cc(Cl)ccc2N2CCN(C)CC2)c1	2.6	3.8	i	0.67	-3%	0.3	2.7
COc1ccccc1NC(=O)c1ccc(NC(=O)CN2C(=O)CN(C)C2=O)cc1	3.0	-2.5	i	0.73	0%	-2.0	0.3

The last three entries of the section before open the next one:
SMILES	HNF4A DNA FP	UCH37 DUB inh	FGF22 binding	Ecoli growth	Vif TR-FRET	MLL AF4-AF9 inh	RanGTP-Impb inh
CC(=O)NNC(=O)c1cc2c3ccccc3n(C)c2s1	-0.1	-41	i	0.64	6%	0.6	-0.5
Cc1cccc(NC(=O)CSCC(=O)Nc2cc(Cl)ccc2N2CCN(C)CC2)c1	2.6	3.8	i	0.67	-3%	0.3	2.7
COc1ccccc1NC(=O)c1ccc(NC(=O)CN2C(=O)CN(C)C2=O)cc1	3.0	-2.5	i	0.73	0%	-2.0	0.3
Cc1cc(S(=O)(=O)N2CCC3(CC2)OCCO3)c(C)cc1Cl	-1.5	0.2	i	0.71	x	-0.8	3.1
COc1ccc(N2CCN(C(=O)COC(=O)c3cccc(OC)c3O)CC2)cc1	-2.3	5.2	x	0.72	-4%	1.5	x
CC(C)c1ccc(NC(=O)Nc2nc(C(N)C3CCCCC3)cs2)cc1 (stereo not drawn)	-2.7	x	i	x	x	u	x
O=c1ccnc(SCCc2ccc([N+](=O)[O-])cc2)[nH]1	0.0	2.5	i	0.67	x	0.0	1.8
O=[N+]([O-])c1ccc(NC(c2ccccc2)c2ccc3cccnc3c2O)cc1 (stereo not drawn)	4.3	3.1	i	0.74	6%	14	x
CCNC(=O)C1CCCN(C(=O)c2cccc3ccccc23)CC1 (stereo not drawn)	-0.1	x	i	x	x	-0.1	x
O=C(CCCN1C(=O)c2cccnc2C1=O)Nc1ccc(Br)cc1	-5.2	-0.5	x	0.67	-3%	-1.3	-1.3
O=C(Cc1ccccc1[N+](=O)[O-])Nc1cccc(S(=O)(=O)NC2=NCCCCC2)c1	3.9	x	i	x	x	-12	-4.6
Cc1ccc2cc(CN(CC3CCCO3)C(=S)NCc3ccco3)c(=O)[nH]c2c1 (stereo not drawn)	7.2	1.4	i	0.69	-3%	7.3	-3.4
COc1ccc(Br)c(C(=O)N2CCN(S(=O)(=O)/C=C/c3ccccc3)CC2)c1	-2.4	2.6	i	0.65	0%	0.5	-4.4
CCC1=C2CC[C@H]3C(=O)N(CC)C(=O)[C@H]3[C@H]2[C@@]2(Cc3ccccc3)C(=NCc3ccccc3)OC(=O)N2C1=O	6.6	3.2	i	x	x	-3.3	0.1
Cc1ccc(NC(=O)C(=O)NN=C2CCCC2)cc1C	-1.5	4.3	i	0.63	x	-9.4	-2.5
CCC/C=N/Nc1nnc(Cc2ccc(OC)c(OC)c2)c(=O)[nH]1	1.9	x	i	x	-2%	-2.5	1.6
O=C(Nc1ccncc1)C1CCN(S(=O)(=O)c2ccc(Cl)cc2)CC1	0.5	3.5	i	0.7	1%	-0.6	2.4
Cc1cccc(OCC(=O)N/N=C/CC(C)c2ccccc2)c1C (stereo not drawn)	-1.3	x	i	x	3%	8.8	2.7
COc1cc(C(=O)N2CCCCC2c2cc(C(=O)NCc3cccnc3)no2)cc(OC)c1C (stereo not drawn)	1.5	x	i	x	x	-1.3	x
COc1ccc(CN(C)C(=O)C23CC4CC(CC(C4)C2)C3)c(OC)c1	3.5	0.7	i	0.67	x	-1.6	3.7
CSc1nc(N2CCOCC2)c2sccc2n1	-0.8	5.8	i	0.69	-3%	-5.2	-2.4
O=C(CN1C(=O)NC2(CCCC2)C1=O)Nc1ccc(Cl)cc1C(F)(F)F	2.3	x	i	x	-11%	1.1	-2.5
COC(=O)c1cccc(NC(=O)CSc2nnc(COc3ccc(C#N)cc3)n2-c2ccccc2)c1	1.4	1.1	x	0.76	-1%	x	2.5
COc1ccc(C(=O)NCC(C)(C)SCc2c(C)cc(C)cc2C)cc1	-2.2	2.0	i	0.7	4%	-7.3	2.0
CCN1CCN(Cc2c(C)[nH]c3ccc(OC)cc3c2=O)CC1	-0.2	-2.1	x	0.75	-1%	x	4.1
CC(C)C#Cc1cnc2c(c1)C(=O)N([C@H](C)CO)C[C@@H](C)[C@H](CN(C)C(=O)Nc1ccccc1F)O2	2.9	x	i	x	1%	0.6&-2.9&-2.0	x
CC(=O)Nc1ccc(S(=O)(=O)NNc2cccc(C)c2)cc1	-0.2	5.9	i	0.66	x	2.4	0.0
CCc1cccc(CC)c1NC(=O)C(CC)Sc1nc2ccncc2[nH]1 (stereo not drawn)	-0.3	7.3	i	0.69	x	9.9	-1.5
CC(=O)NC1(c2ccccc2)CCN(Cc2nnnn2C(C)(C)C)CC1	-1.1	-0.5	x	0.71	29%	x	-1.4
C=CCn1nnnc1-c1cc(Cl)cc(Cl)c1	3.1	0.9	i	0.66	-2%	-0.9	1.0
O=C(Cc1csc(NC(=O)c2ccccc2)n1)NO	0.8	2.1	i	0.7	2%	4.2	2.0
COC(OC)c1ccnc(-c2ccc(OC(C)=O)cc2)n1	-2.6	-0.8	i	0.64	-18%	0.1	2.4
CCc1nc2ccc(C(=O)Nc3cccc(NS(C)(=O)=O)c3)cn2c1N(C)CCN1CCOCC1	5.3	x	i	x	x	-1.2	x
COc1ccc2c(c1)[nH]c1c(=O)n(Cc3ccco3)cnc12	-2.2	x	x	x	25%	x	3.9
COCCN(C(=O)CCc1ccc(OC)cc1)c1nnc(-c2ccncc2)s1	2.0	1.1	i	0.7	-47%	-1.5	-2.3
CCOC(=O)c1sc(NC(C)=O)c(C(=O)OCC)c1C	3.7	2.2	x	0.75	-5%	x	1.2
Fc1ccc(Nc2ccc3ccccc3n2)c(F)c1	0.9	-23	i	0.65	x	-0.4	x
Cn1c(C(=O)NCCCN2CCOCC2)cc2c(=O)n(C)c3ccccc3c21	-2.9	0.1	i	0.77	1%	-4.2	u
Cc1cc(=O)oc2c(C)c(OCC(=O)NCc3ccccn3)ccc12	-2.2	-13	i	0.72	x	0.9	-1.9
Cc1ccnc2nc(C(=O)Nc3nnc(-c4ccccc4)o3)nn12	-4.1	5.6	i	0.62	19%	-1.8	2.3
CC(=NO)c1cc(Br)c2cccc3c2c1CC3	-1.4	x	x	x	-6%	-2.3	x
CC1CCCN(C(=O)CSc2nnc(-c3ccc(O)cc3)o2)C1 (stereo not drawn)	3.0	1.2	i	0.7	x	-0.3	1.8
CCn1c(Cc2cccs2)nnc1SCC(=O)NC1CC1	-1.5	4.2	i	0.7	x	-3.6	-0.2
CCN(CC)C(=O)[C@H]1CC(CC(=O)NCCCn2ccnc2)C(=O)N2CCc3c([nH]c4ccc(OC)cc34)[C@]12C (stereo partly drawn)	1.3	1.6	i	0.7	x	-4.1	x
COc1ccc(N(CC(=O)NCc2ccccc2)S(=O)(=O)c2c(C)nn(C)c2C)cc1	-2.5	1.5	i	0.8	-1%	-2.8	-1.7
CCn1cc(C(=O)OCC(=O)c2cc(C)n(-c3ccccc3)c2C)c(=O)c2ccc(C)nc21	1.4	6.8	x	0.64	x	x	1.9
Cc1cc(C)nc(Nc2ncc(O)n2-c2ccc(C)c(Cl)c2)n1	1.8	2.9	x	0.72	1%	x	3.7
O=C(COC(=O)c1ccc(O)cc1)Nc1cc(S(=O)(=O)N2CCOCC2)ccc1Cl	3.5	0.7	i	0.6	3%	3.1	x
Cc1cc(NCCCN(C)C)n2nc(-c3cccs3)cc2n1	2.1	-15	x	0.73	11%	x	2.4
